Bioassay records deposited in PubChem BioAssay by National Center for Advancing Translational Sciences (NCATS).
GLA inh pH 4.5: alpha-galactosidase A (human) inhibition, pH 4.5; purified enzyme, 4-MU-alpha-Gal fluorescence, pH 4.5; activity change, negative = inhibition, % at 105 µM; 230,000 tested, under 10 active; inconclusive = small, poorly fitted or top-dose-only inhibition, or a rising curve; inactive = flat fitted curve, though single readings scatter; no compound was filed as active;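 also: 0% = full activity with enzyme and -100% = basal without enzyme; dose as in the result columns while the protocol names 77 µM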
Rango-impB inh: Rango-importin beta binding inhibition; 340,000 compounds, 0.031% hits; AID 540263; Potency, µM (top dose mostly 92.2 µM), for inactives: at the highest dose inhibition of complex formation; Rango CFP/YFP FRET sensor + importin beta, 45 min; active = rising FRET ratio curve, often small or poorly fitted; inconclusive = mostly compound fluorescence or quenching in the first reads; inactive = flat curves in all reads;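 also: potency is read from the fitted curve at half-maximal effect; 0% = DMSO wells and 100% = buffer wells lacking importin beta; nearly all actives have a fitted effect of over 15% in size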
Target sequence (Q14974 whole entry, looked up): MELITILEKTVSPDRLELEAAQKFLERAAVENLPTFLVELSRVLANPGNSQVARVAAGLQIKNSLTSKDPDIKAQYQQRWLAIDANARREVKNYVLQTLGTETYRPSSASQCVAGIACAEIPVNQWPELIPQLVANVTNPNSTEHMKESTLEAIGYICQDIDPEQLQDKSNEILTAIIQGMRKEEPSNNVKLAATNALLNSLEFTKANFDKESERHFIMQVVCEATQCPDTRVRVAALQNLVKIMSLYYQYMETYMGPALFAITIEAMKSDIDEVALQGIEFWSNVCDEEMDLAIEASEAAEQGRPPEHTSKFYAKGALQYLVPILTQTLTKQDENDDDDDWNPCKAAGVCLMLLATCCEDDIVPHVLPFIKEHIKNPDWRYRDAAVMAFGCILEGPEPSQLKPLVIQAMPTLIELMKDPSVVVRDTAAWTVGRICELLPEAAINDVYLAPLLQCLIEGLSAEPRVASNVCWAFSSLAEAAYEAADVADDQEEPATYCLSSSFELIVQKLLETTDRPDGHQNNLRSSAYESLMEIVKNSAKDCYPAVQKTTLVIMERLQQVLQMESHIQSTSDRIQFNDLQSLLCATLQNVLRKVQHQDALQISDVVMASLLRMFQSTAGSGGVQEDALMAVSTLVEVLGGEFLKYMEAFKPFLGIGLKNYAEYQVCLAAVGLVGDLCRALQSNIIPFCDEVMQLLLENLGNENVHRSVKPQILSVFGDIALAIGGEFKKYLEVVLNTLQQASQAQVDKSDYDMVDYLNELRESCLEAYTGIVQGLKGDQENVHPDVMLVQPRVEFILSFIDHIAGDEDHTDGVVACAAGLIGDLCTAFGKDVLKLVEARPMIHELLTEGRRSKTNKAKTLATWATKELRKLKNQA
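Inhibition scored from the CFP 486 nm/YFP 530 nm FRET ratio 45 min after adding 0.125 microM importin beta to 50 nM Rango biosensor preincubated 5 min with compound (room temperature, PBS with DTT, Tween-20, BSA). No-importin wells as positive control.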
Rango dissoc inh: prevents RanGTP from dissociating the Rango-importin beta complex. Biochemical FRET Rango-importin beta, RanGTP-induced dissociation. Potency, µM (titrated, usually from 46.1 µM), for inactives: at the highest dose activity change, negative = inhibition. 340,000 compounds, 0.071% hits; active means falling FRET ratio curve, often poorly fitted, with flat reads before Ran was added; inconclusive means other falling curves, or compound fluorescence or quenching; inactive means flat or rising ratio curve;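 also: potency is read from the fitted curve at half-maximal effect; % of control where 0% means no effect; nearly all actives have a fitted effect of over 45% in size; -100% = wells without RanGTP and RCC1; the record marks most hits as doubtful in a second field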
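Quantitative HTS using a FRET biosensor: 0.1 uM Rango, 0.25 uM importin beta, 0.6 uM Ran, 2 mM GTP, 0.2 uM RCC1 final, PBS with DTT, Tween-20 and BSA. Post-read taken 45 min after Ran addition.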
miR-21 FLuc: miR-21 reporter, rising signal; HeLa miR-21 FLuc reporter, luciferase, 48 h; Potency, µM (titrated, usually from 38.3 µM), without a hit: at the highest dose reporter change, positive = more light; 340,000 tested, under 10 active; AID 2288; active = well fitted rising curve with a large enough effect; inconclusive = small, poorly fitted or top-dose-only effect; inactive = no such curve, though single readings can be large or run the other way;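 also: % of control where 0% means no effect; miR-21 action dims this reporter so a rising signal means less miR-21 action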
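Compounds were titrated across several concentrations (up to approximately 40 uM) and incubated 48 hours with HeLa miR-21-FLuc reporter cells (miR-21 target sequence downstream of FLuc, endogenous miR-21). Readout was firefly luciferase luminescence after lytic detection reagent.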
Starred values were filed as active, the others as inactive; u = inconclusive; x = not tested or not shown; [ ] = remark or other dose. Not all compounds are listed, so the mix of outcomes need not match the whole.

nr	Rango-impB inh	miR-21 FLuc	GLA inh pH 4.5	Rango dissoc inh	Structure
1	4.6%	-4%	8	16%	Cc1cccc(NC(=S)NC2CC3CCC(C2)N3Cc2ccco2)c1C (stereo not given)
2	3.4%	-1%	x	17%	CC(=O)Nc1ccc(S(=O)(=O)NCCC(=O)Nc2ccc(C)c(F)c2)cc1
3	1.5%	9%	x	22%	COc1cc(NC(=O)c2ccccc2F)c(OC)cc1NC(=O)CN1CCCCC1
4	1.8%	-25%	-11	-13%	CCCc1nc2ccccc2n1CCOC
5	-0.3%	x	x	-4%	O=c1cc(-c2ccccc2)oc2ccccc12
6	7.4%	-1%	-4	-5%	Cc1ccccc1CSCC(=O)Nc1c(C)n(C)n(-c2ccccc2)c1=O
7	-0.1%	-25%	-13	-6%	N/C(=N\OC(=O)CCc1ccccc1)c1ccc(Cl)cc1
8	u	x	7	u	C=CC1=C2C=C(C3CC3)N(CC3CC3)C=C2C(=O)C(C)(OC(=O)c2ccco2)C1=O (stereo not given)
9	-4.8%	0%	2	8%	O=C(N1CCOCC1)N1CCN(c2ccccc2)CC1
10	-0.5%	17%	3	3%	Clc1cccc(-c2nc(NCCCN3CCOCC3)c3ccccc3n2)c1
11	-2.8%	u	-6	1%	CCC(=O)N1CCN(c2ccc(NC(=O)COc3ccccc3Cl)cc2)CC1
12	0.6%	-3%	0	22%	Cc1cc2oc(=O)cc(CN3CCN(Cc4ccccc4)CC3)c2cc1Cl
13	-1.3%	1%	-3	1%	COc1ccc(S(=O)(=O)Nc2cccc(N(C)S(C)(=O)=O)c2)cc1Br
14	0.3%	x	x	u	O=C(O)c1ccc(Oc2ccc([N+](=O)[O-])cc2)c([N+](=O)[O-])c1
15	5.4%	-1%	-3	12%	CCOCCn1c(CN2CCC(Cc3ccccc3)CC2)nc2c1c(=O)n(C)c(=O)n2C
16	1.9%	9%	x	0%	COc1ccc(Nc2nc(NN)nc(Nc3ccc(OC)cc3)n2)cc1
17	0.3%	5%	-6	-2%	CCN(CC)CCNC(=O)c1ccc(NC(=O)/C=C/c2cc(OC)c(OC)c(OC)c2)cc1
18	0.3%	-1%	0	0%	CCOC(=O)C1=Nc2ccccc2C1=[N+]=[N-]
19	0.1%	-10%	0	18%	O=C1c2ccccc2C(=O)N1CCn1c(=O)oc2ccccc21
20	3.5%	-2%	x	11%	O=C(Nc1ccnn1C1CCN(C/C=C/c2ccccc2)CC1)c1ccccc1

Arranged by molar mass (low to high): 3 of the compounds above.
nr	Rango-impB inh	miR-21 FLuc	GLA inh pH 4.5	Rango dissoc inh	Structure
4	1.8%	-25%	-11	-13%	CCCc1nc2ccccc2n1CCOC
9	-4.8%	0%	2	8%	O=C(N1CCOCC1)N1CCN(c2ccccc2)CC1
7	-0.1%	-25%	-13	-6%	N/C(=N\OC(=O)CCc1ccccc1)c1ccc(Cl)cc1

(more compounds)
nr	Rango-impB inh	miR-21 FLuc	GLA inh pH 4.5	Rango dissoc inh	Structure
21	0.6%	4%	x	-10%	CCOC(=O)N1CCC(N2Cc3cccc(C(=O)Nc4ccc(S(=O)(=O)N(CC)CC)cc4)c3C2=O)CC1
22	-0.5%	-1%	x	13%	CCOc1ccc(S(=O)(=O)NCCC(=O)Nc2ncccc2C)cc1
23	0.9%	-6%	9	0%	Cc1ccc(S(=O)(=O)NCCNC(=O)c2ccccc2)cc1
24	5.6%	x	x	2%	CCOc1ccc(S(=O)(=O)Nc2ccc(C(=O)NCc3ccncc3)cc2)cc1
25	2.0%	x	x	-2%	O=C(NCC(=O)N1CCCC(C(F)(F)F)C1)c1ccccc1F (stereo not given)
26	-1.8%	-12%	3	7%	CCOc1ccccc1OCCCCOc1ccccc1F
27	-3.0%	-25%	x	4%	CC(=O)Nc1ccc(NC(=O)c2ccc(COc3ccc(C)cc3)o2)cc1
28	1.7%	-23%	8	0%	Cc1cc(C)nc(N(C#N)CCOc2ccccc2)n1
29	-5.8%	4%	x	-13%	COc1ccc(/C=C2\SC(=S)N(CCC(=O)Nc3cccc(C(=O)O)c3)C2=O)cc1
30	2.3%	0%	3	1%	Cc1c(Cc2c(C)n(C)n(-c3ccccc3)c2=O)c(=O)n(-c2ccccc2)n1C
31	u	-16%	-4	u	CCOC(=O)CNC(=O)c1ccc2[nH]c3c(c2c1)CCCC3
32	1.3%	-30%	x	-11%	CCC(C)C(NC(=O)CCC(=O)OCC(=O)[C@@]1(O)CCC2[C@@H]3CCC4=CC(=O)C=C[C@]4(C)C3[C@@H](O)C[C@@]21C)C(=O)O (stereo not given in full)
33	1.1%	-9%	2	1%	CCOC(=O)C1CCCN(C(=O)Nc2cccc(Cl)c2)C1 (stereo not given)
34	-2.7%	-6%	x	-2%	Cc1ccc(Nc2nc(-c3sc(C)nc3C)cs2)cc1
35	4.7%	9%	x	1%	C[C@H](NC(=O)c1nc[nH]c1C(=O)N[C@@H](Cc1ccccc1)C(=O)OCc1ccccc1)C(=O)OC(C)(C)C
36	u	-1%	u	-14%	CCCn1nc(C(=O)Oc2ccc3c(C)cc(=O)oc3c2)c2ccccc2c1=O
37	4.0%	x	x	4%	Cc1ccc(S(=O)(=O)N2[C@@H](c3ccc(Cl)cc3)C(C(=O)O)=CC[C@H]2c2cccs2)cc1
38	3.7%	0%	x	-14%	N#Cc1c(SCC(=O)Nc2ccccc2C(F)(F)F)sc2c(O)cc(=O)[nH]c12
39	-1.6%	-1%	-2	-24%	Cc1c(C(c2cccc(O)c2)c2c(C)n(C)n(-c3ccccc3)c2=O)c(=O)n(-c2ccccc2)n1C
40	1.7%	-5%	x	12%	CCCC(=O)Nc1ccc(S(=O)(=O)Nc2cc(OC)nc(OC)n2)cc1

nr	Rango-impB inh	miR-21 FLuc	GLA inh pH 4.5	Rango dissoc inh	Structure
41	3.3%	-17%	5	12%	CCCCN(CC)C(=O)c1cc2cc3ccc(OC)cc3nc2o1
42	2.7%	-23%	-3	0%	Cc1ccc(C(=O)NCCc2csc(-c3cccnc3)n2)cc1
43	u	-4%	4	-3%	S=c1[nH]nc(Cc2noc3ccccc23)n1-c1ccc(Cl)cc1
44	-2.4%	-1%	5	16%	Cc1cc(C)nc(NS(=O)(=O)c2ccc(NC(=O)CSc3nc(-c4ccccc4)c(C#N)c(=O)[nH]3)cc2)n1
45	2.1%	2%	x	8%	O=C(O)C1CCN(c2ccc(S(=O)(=O)N3CCC(C(=O)O)CC3)cc2[N+](=O)[O-])CC1
46	x	-2%	10	x	O=C(NCC(=O)N(c1cccnc1)C(C(=O)NC1CCCC1)c1ccc(F)cc1)c1ccco1 (stereo not given)
47	-3.2%	-1%	-6	3%	COC(=O)[C@H](CCSC)NC(=O)c1cccnc1SC
48	-7.6%	0%	3	-18%	O=C(CSc1nnc(C2CC2)n1-c1ccccc1)NCCc1ccc(F)cc1
49	2.9%	-3%	x	-13%	COc1cc(CN2CCc3ccccc3C2)cc([N+](=O)[O-])c1O
50	0.2%	-4%	7	-15%	Cn1cc(CCNC(=O)CCc2nnc(CCCCc3ccccc3)o2)cn1
51	-0.5%	-2%	4	-2%	COc1ccc(C(=O)Nc2ccc(S(=O)(=O)NC(C)C)cc2)cc1
52	-5.1%	-7%	-5	-14%	O=C(Cn1nnc(-c2ccc(CN3CCOCC3)cc2)n1)N1CCCc2ccccc21
53	0.5%	-1%	-10	15%	O=C(C1CCCN(S(=O)(=O)c2cccc3nsnc23)C1)N1CCc2ccccc21 (stereo not given)
54	-1.6%	-13%	-21	1%	CCOC(=O)C1(CCc2ccccc2)CCN(C(=O)c2occc2C)CC1
55	-0.4%	x	x	5%	Cn1ccsc1=NC(=O)c1cc(S(=O)(=O)N2CCOCC2)ccc1Cl
56	1.3%	0%	0	0%	COc1ccc(C(=O)Nc2c(Cl)cc(Cl)cc2C(=O)NCCN2CCOCC2)cc1
57	0.1%	-2%	-12	4%	Cc1c(N2C(=O)c3ccc(F)cc3C2=O)c(=O)n(-c2ccccc2)n1C
58	-0.6%	2%	x	1%	Cc1cc(NC(=O)C2CC(=O)N(c3ccccc3Cl)C2)no1 (stereo not given)
59	-1.6%	2%	11	4%	CCOCC(=O)N1CCN(c2cccc(Cl)c2)CC1
60	2.9%	x	x	-1%	O=C(CSc1nc(-c2ccccc2)cs1)NCCCN1CCCC1=O

Some of these compounds in order of their number in Rango dissoc inh, rising.
entry	SMILES	Rango dissoc inh
60	O=C(CSc1nc(-c2ccccc2)cs1)NCCCN1CCCC1=O	-1%
56	COc1ccc(C(=O)Nc2c(Cl)cc(Cl)cc2C(=O)NCCN2CCOCC2)cc1	0%
41	CCCCN(CC)C(=O)c1cc2cc3ccc(OC)cc3nc2o1	12%
53	O=C(C1CCCN(S(=O)(=O)c2cccc3nsnc23)C1)N1CCc2ccccc21 (stereo not given)	15%

(listing goes on)
nr	Rango-impB inh	miR-21 FLuc	GLA inh pH 4.5	Rango dissoc inh	Structure
61	0.4%	x	x	1%	C[C@H]1CN(S(=O)(=O)c2c(F)cccc2F)CCN1S(=O)(=O)c1ccc2c(c1)OCCO2
62	-1.8%	-14%	3	-11%	O=C(Nc1nnc(-c2ccc(Cl)cc2)o1)C1CCCCC1
63	-0.4%	-3%	1	-15%	COC(=O)c1c(NC(=O)c2ccccc2)sc2c1CC(C)(C)OC2
64	4.7%	u	-9	1%	Cc1ccc(Nc2c3c(nc4ccccc24)CCC3)cc1
65	1.6%	-6%	3	13%	Cn1c2c(c(=O)n(C)c1=O)C(C(F)(F)F)(C(F)(F)F)N=C(c1ccccc1Cl)N2
66	-2.7%	-48%	1	-12%	CCCSc1nn2c(=O)c3ccccc3nc2s1
67	u	-1%	-7	u	CCOC(=O)c1c(C)oc2c1c(C=NCC1CCCO1)c(O)c1ccccc12 (stereo not given)
68	3.9%	2%	-13	9%	CCOC(=O)Cn1c(=N)n(CCOc2ccc(Br)cc2)c2ccccc21
69	0.4%	-4%	-1	9%	CC(Oc1ccccc1F)C(=O)Nc1ccc2ccccc2c1 (stereo not given)
70	-1.4%	2%	-6	5%	CCCCOC(=O)C(C)Oc1ccc(=O)n(-c2ccccc2)n1 (stereo not given)
71	2.2%	-5%	x	2%	CC(=O)c1cccc(NC(=O)CCc2nnc3ccc(NCc4ccc5c(c4)OCO5)nn23)c1
72	-0.4%	1%	-5[21.1 µM]	16%	Cc1ccc(N2CC(=O)N(CC(=O)O)C2=O)cc1
73	-0.7%	-5%	x	11%	Cc1cc(C(=O)O)cc(S(=O)(=O)Nc2ccccc2C(=O)NC(C)c2ccccc2)c1C (stereo not given)
74	4.4%	-2%	x	35%	CC1CN(Cc2ccccc2)c2nc3c(c(=O)n(CC(=O)O)c(=O)n3C)n2C1 (stereo not given)
75	5.0%	x	x	14%	CC(=O)Nc1ccc(NC(=O)CSc2nc(=O)n3cccc(C)c3n2)cc1
76	2.6%	1%	x	-2%	C/C(CC(=O)Nc1cccc(C(F)(F)F)c1)=N\NC(=O)c1ccncc1
77	2.0%	-66%	-12	4%	CCOc1ccc(N=C(/C(C(=O)C(=O)N2CCOCC2)=C(\O)c2ccccc2)c2ccccc2)cc1
78	0.7%	-2%	3	-12%	COc1cccc(OC)c1OCCN1CCN(C(=O)c2ccco2)CC1
79	2.6%	-5%	7	-23%	OCCCc1nc2ccccc2n1CCc1ccccc1
80	-2.5%	2%	x	0%	CC(NC(=O)c1ccccc1Cl)NC(=O)c1ccccc1Cl
81	x	-4%	10	x	OCCCc1nc2n(n1)C(c1cccs1)C=C(c1ccccc1)N2 (stereo not given)
82	-3.3%	x	x	18%	CN(C)C(=O)CSc1ccccc1C(=O)OCC(=O)NC1CC1

Looked up one by one from the entries so far, 3 records:
nr	Rango-impB inh	miR-21 FLuc	GLA inh pH 4.5	Rango dissoc inh	Structure
62	-1.8%	-14%	3	-11%	O=C(Nc1nnc(-c2ccc(Cl)cc2)o1)C1CCCCC1
80	-2.5%	2%	x	0%	CC(NC(=O)c1ccccc1Cl)NC(=O)c1ccccc1Cl
66	-2.7%	-48%	1	-12%	CCCSc1nn2c(=O)c3ccccc3nc2s1
